Screening data as filed in PubChem.
VDR inh = blocks the human vitamin D receptor. P11473. VDR-SRC2-3 peptide fluorescence polarization, 2 h. Potency, µM, inactives show max response, negative = inhibition, hits mostly inhibitors. 400,000 compounds, 0.93% hits; active = well fitted inhibition curve with a large enough effect; inconclusive = small, poorly fitted or top-dose-only effect, or another doubt; inactive = no such curve, though single readings can be large or run the other way; also: series mostly up to about 120 µM
Target sequence (P11473 whole entry, looked up): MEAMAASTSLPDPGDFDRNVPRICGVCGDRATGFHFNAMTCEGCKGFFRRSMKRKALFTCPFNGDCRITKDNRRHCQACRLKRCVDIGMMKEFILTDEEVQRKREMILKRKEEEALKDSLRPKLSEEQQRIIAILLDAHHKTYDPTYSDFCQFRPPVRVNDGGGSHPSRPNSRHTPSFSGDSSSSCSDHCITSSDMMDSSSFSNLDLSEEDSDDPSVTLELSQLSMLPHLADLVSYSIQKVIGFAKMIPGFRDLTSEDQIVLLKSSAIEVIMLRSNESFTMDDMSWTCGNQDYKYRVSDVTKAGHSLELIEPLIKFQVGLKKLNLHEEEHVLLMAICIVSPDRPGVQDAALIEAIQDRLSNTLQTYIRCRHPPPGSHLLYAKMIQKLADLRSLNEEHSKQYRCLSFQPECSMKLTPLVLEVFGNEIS
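Fluorescence polarization assay of small-molecule disruption of VDR binding to coregulator peptide SRC2-3. Compounds and controls pin-transferred, then read after 2 h incubation at ambient room temperature.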
Numbers without * were called inactive; ? = inconclusive; & = joins results of further samples. % is scaled to controls: 0 for no effect and ±100 for the full control effect; potency is read from the fitted curve at half-maximal effect.

SMILES	VDR inh
O=C(Nc1cc(Cl)cc(Cl)c1)C(NCC1CCCO1)c1ccccc1 (stereo unspecified)	-8%
Cc1cccc(CNC(=O)c2oc3c(c2C)-c2nn(Cc4ccccc4Cl)cc2CC3)c1	2%
COc1ccccc1N(CC(=O)NCCSc1ccccc1)S(=O)(=O)c1ccccc1	-14%
COC(=O)c1scc(C)c1N/N=C(\C)c1ccc(F)cc1	-7%
O=C(CSc1nnc(NC(=O)c2ccccc2C(=O)O)s1)Nc1ccccc1Cl	3%
COc1ccc2nc(NC(=O)c3ccc(Br)s3)sc2c1	5%
FC(F)Oc1cccc(NC(=S)N2CCN(c3ccccn3)CC2)c1	-10%
Nc1c(C(=O)Nc2ccccc2)sc2nc3c(c(-c4ccco4)c12)CCCC3	10%
Cn1c(=O)c(-c2ccc(F)cc2)nc2cnc(N3CCOCC3)nc21	-3%
Cc1ccc(-n2c(=O)c3c(C)c(C(=O)N(C)C)sc3n(CC(=O)N(C)c3ccccc3)c2=O)cc1C	10%
CCC(C)[C@H](NC(=O)N1CCC(Cc2ccccc2)CC1)C(=O)O (stereo partly specified)	3%
CCC(=O)Nc1ccc(C(=O)CSc2nnc(-c3ccc(O)cc3)n2CC2CCCO2)cc1 (stereo unspecified)	-3%
Cc1nn(C)c(C)c1/C=N/NC(=O)CCn1nc(C)c([N+](=O)[O-])c1C	-28%
Cc1cc(Cl)nc2ccc(Cc3ccc4nc(Cl)cc(C)c4c3)cc12	-12%
CCCCCN(C(=O)CCC(=O)OCc1cccc(Cl)c1)c1c(N)n(CCCC)c(=O)[nH]c1=O	-13%
COc1cc(OC)c(NC(=O)CCc2c(C)nc3cc(-c4ccccc4OC)nn3c2C)cc1Cl	-1%
Cc1nn(C(=O)c2cccc(Cl)c2)c(C)c1S(=O)(=O)N1CCOCC1	12%
CC[C@@H](C)[C@@H]1CN([C@@H](C)CN2CCC[C@H]2CN2C(N)=NC[C@H]2CC(C)C)C(=N)N1CCCC1CCCC1	-23%
CS(=O)(=O)Nc1ccc2c3c(cccc13)CC2	7%
Cc1nnc(NC(=O)CSc2nnc3c(n2)[nH]c2ccccc23)s1	-12%

Single values from above.
`Cc1ccc(-n2c(=O)c3c(C)c(C(=O)N(C)C)sc3n(CC(=O)N(C)c3ccccc3)c2=O)cc1C` in VDR inh is listed with 10%
`CCC(C)[C@H](NC(=O)N1CCC(Cc2ccccc2)CC1)C(=O)O` (stereo partly specified) in VDR inh is listed with 3%
`COC(=O)c1scc(C)c1N/N=C(\C)c1ccc(F)cc1` in VDR inh is listed with -7%

(cont.)
SMILES	VDR inh
O=C(c1ccc(Cl)cc1)N(Cc1ccco1)Cc1ccco1	-3%
CCCC(=O)NC(=S)N1CCN(c2ccc([N+](=O)[O-])cc2)CC1	-15%
Cc1ccc(-c2noc(CN(C)C(=O)Nc3ccc(F)cc3)n2)cc1	-9%
CCOC(=O)c1cnc2c(C)cc(C)cc2c1NCCCN1CCOCC1	-10%
O=C1CN2NC(=S)N(c3ccc(Cl)cc3)C2=CN1c1ccc(Cl)cc1	-1%
COc1ccc(C(=O)NCc2nnc(SCC(=O)Nc3cc(OC)ccc3OC)o2)cc1	6%
CCCn1c(NCc2cccc(OC)c2OC)nc2ccccc21	11%
Cc1ccccc1C(=O)N/N=C/c1ccc(OCC(=O)N2CCCCC2)cc1	-2%
COc1ccc(-c2nc3sc(CCNC(=O)c4ccc(C(C)(C)C)cc4)c(C)n3n2)cc1	1%
Cn1c(SCC(=O)Nc2ccc3c(c2)CCC3)nnc1C1CC1	6%
Cc1ccc(NC(=O)CN2CCC(NC(=O)c3cccc(F)c3)CC2)cc1C	-7%
C=CCn1c(NCc2cc(Cl)ccc2O)nc2ccccc21	-25%
O=C(NCc1ccc(Cl)cc1)NC1COc2ccccc2C1 (stereo unspecified)	-4%
O=C(Nc1ccc(-n2cnnn2)cc1)C1CCCCC1	2%
O=C1c2cccnc2C(=O)N1Cc1ccc(S(=O)(=O)N2CCN(c3ccccc3)CC2)cc1	-6%
COc1ccc(NC(=O)C(NS(=O)(=O)c2cccc3nsnc23)C(C)C)cc1 (stereo unspecified)	-8%
CCOc1ccc(-c2noc(CCC(=O)NC3CCCCC3)n2)cc1OC	-7%
Cc1ccc(-c2nnc(NC(=O)CCS(=O)(=O)c3ccc(F)cc3)o2)c(C)c1	-1%
COCCN(C(=O)/C=C/c1ccccc1)c1c(N)n(Cc2ccccc2)c(=O)[nH]c1=O	?
CC(C)NC(=O)NC(=O)COC(=O)Cc1c(F)cccc1Cl	11%

Laid out differently: entries from further up
SMILES: CCCC(=O)NC(=S)N1CCN(c2ccc([N+](=O)[O-])cc2)CC1
- VDR inh = -15%
SMILES: Cc1ccc(-c2noc(CN(C)C(=O)Nc3ccc(F)cc3)n2)cc1
- VDR inh = -9%
SMILES: CCOC(=O)c1cnc2c(C)cc(C)cc2c1NCCCN1CCOCC1
- VDR inh = -10%
SMILES: O=C1CN2NC(=S)N(c3ccc(Cl)cc3)C2=CN1c1ccc(Cl)cc1
- VDR inh = -1%

The list goes on:
SMILES	VDR inh
CCn1nc(C)c(Br)c1C(=O)Sc1ccccc1Cl	?
CSC1CCCCC1(O)CSc1nc2c(cc1C#N)CCCC2 (stereo unspecified)	-15%
O=C(Nc1ccc([N+](=O)[O-])cc1Cl)c1ccccc1O	-10%&5%
CC(=O)C1=C(O)C(=O)N(c2cccc(Br)c2)C1c1ccccc1Cl (stereo unspecified)	-24%
COc1ccc(C(CNc2ccc(S(C)(=O)=O)cc2[N+](=O)[O-])N(C)C)cc1OC (stereo unspecified)	-16%
Cc1nc2nc(CNC(=O)c3cccc(F)c3)nn2c(C)c1CCC(=O)Nc1ccc(F)cc1	11%
Cc1cccc(C)c1NC(=O)Cn1c(=O)c2cccn2c2ccccc21	21%
Cc1ccccc1CC(=O)NC1CCN(C)CC1	10%
NC(N)=N/N=C/c1ccccc1OC(F)F	-1%
C#CCOCCOCCOCCNc1nc(N2CCN(C(=O)CCCCCCCCCCNC(=O)Cn3cc(CCCCCN)nn3)CC2)nc(N2CCN(C(=O)CCCCCCCCCCNC(=O)[C@H]([C@@H](C)CC)n3cc(CCCCCN)nn3)CC2)n1	2%
CCOc1ncccc1C(=O)OCC(=O)Nc1cc(C(C)(C)C)ccc1OC	4%
Cc1ccc(-c2nn(CC(=O)NCCN3CCOCC3)c(=O)c3ccccc23)cc1	0%
O=C(N/N=C\c1ccc(Sc2ccccn2)o1)c1cccc(Br)c1	6%
O=Cc1ccc(F)c([B-](F)(F)F)c1	-8%
COc1ccccc1CNC(=O)c1ccc2c(c1)N(Cc1cc(C)ccc1C)C(=O)c1ccccc1S2	-1%
CC1CCCC(NC(=O)c2ccc3c(c2)NC(=O)CS3)C1C (stereo unspecified)	-10%
O=C1C=C(NC(=O)Nc2ccc(Cl)c(Cl)c2)CCC1	2%
Cc1ccc(C)c(N2CCN(C(=O)CCc3nc(-c4ccc(Cl)cc4)no3)CC2)c1	-5%
COc1ccc(NC(=O)CSc2nc3ccccc3c(=O)n2CCC(=O)NC2CCCCC2)c(OC)c1	4%
CCCNC(=O)C1CN(S(=O)(=O)c2ccc(C)cc2)c2ccccc2O1 (stereo unspecified)	-4%
COc1cccc(CN(C)C(=O)Nc2cccc(C(F)(F)F)c2)c1OC	-2%
CC(C)(C)c1ccc2c(c1)N(CC(=O)NCCCN1CCN(c3ccccc3F)CC1)C(=O)CO2	10%
O=C1c2nccnc2C(=O)N1c1ccc(F)cc1	3%
COc1ccc(CNC(=O)C2CC(c3ccc(C(F)(F)F)cc3)=NO2)cc1 (stereo unspecified)	-9%
CC12COC3(C(=O)Nc4nccs4)CC1CCC32C (stereo unspecified)	-12%
COC(=O)c1ccc(OC(=O)CCc2cc(OC)c(OC)c(OC)c2)cc1	-4%
CCCC(c1nnnn1CC(=O)OCC)N(Cc1cc2c(C)cc(C)cc2[nH]c1=O)C1CCCC1 (stereo unspecified)	1%
COc1ccccc1-c1c(C#N)c(N)nc2c1CCC2	-3%
CCN1C(=O)C2(C(C(=O)c3ccc(C)o3)=C(O)C(=O)N2CCCN(C)C)c2ccccc21 (stereo unspecified)	-7%
CCOCCOC(=O)C(C)Sc1n[nH]c(=O)[nH]c1=O (stereo unspecified)	7%
O=C(NCC(c1ccco1)N1CCCC1)c1ccc(Cl)c(S(=O)(=O)N2CCc3ccccc32)c1 (stereo unspecified)	?
CCn1c(CSc2nc3ccccc3s2)nnc1SCC(=O)c1ccc2c(c1)OCCO2	2%
Cc1nn(CC(=O)Nc2nnc(CC(=O)N3CCCC3)s2)c(=O)c2ccccc12	-12%
CC(=O)Nc1ccccc1-c1nc2ccc(C(=O)N3CCN(c4cccc(C)c4)C(C)C3)cc2[nH]c1=O (stereo unspecified)	19%
CCCCN(C)CCCNC(=O)C1(O)c2ccccc2NC(=O)N1c1ccc(Cl)cc1 (stereo unspecified)	-23%
CC(=O)Nc1ccc(Nc2c([N+](=O)[O-])c(=O)n(-c3ccccc3)c3ccccc23)cc1	1%
CN(C)c1ccc(NC(=O)Cn2c(SCc3ccc(F)cc3)nc3ccncc32)cc1	-1%
COc1cc(C2C(C(=O)c3ccc(C)o3)=C(O)C(=O)N2c2cc(C)on2)ccc1OCc1ccccc1 (stereo unspecified)	-18%
CCOC(=O)CNC(=O)c1cc(OC)cc(OC)c1	16%
Cc1ccc(-c2nc(CN(C)C3CCOCC3)c(C)o2)s1	-6%

A different layout for four compounds above.
mol: O=C1c2cccnc2C(=O)N1Cc1ccc(S(=O)(=O)N2CCN(c3ccccc3)CC2)cc1
  VDR inh: -6%
mol: COc1ccc(NC(=O)C(NS(=O)(=O)c2cccc3nsnc23)C(C)C)cc1 (stereo unspecified)
  VDR inh: -8%
mol: CCOc1ccc(-c2noc(CCC(=O)NC3CCCCC3)n2)cc1OC
  VDR inh: -7%
mol: Cc1ccc(-c2nnc(NC(=O)CCS(=O)(=O)c3ccc(F)cc3)o2)c(C)c1
  VDR inh: -1%

An excerpt from above in order of SMILES length, rising:
SMILES	VDR inh
Cc1ccc(-c2nc(CN(C)C3CCOCC3)c(C)o2)s1	-6%
COC(=O)c1ccc(OC(=O)CCc2cc(OC)c(OC)c(OC)c2)cc1	-4%
CCn1c(CSc2nc3ccccc3s2)nnc1SCC(=O)c1ccc2c(c1)OCCO2	2%

Carrying on:
SMILES	VDR inh
O=C(Cn1c(-c2cccs2)cc2cc(F)ccc21)N1CCN(c2ccccc2)CC1	1%
COc1cc(C=C(C(C)=O)C(C)=O)ccc1O	0%
CCOC(=O)CC(NC(=O)C(CC)c1ccccc1)c1ccccc1Cl (stereo unspecified)	-16%
CCS(=O)(=O)N1CCC(C(=O)Nc2cc(Cl)ccc2O)CC1	-4%
O=C(NCCc1ccccc1)c1cccnc1	-9%
Cn1c(=O)c(C#N)c(-c2ccccc2)n2cnnc12	12%
CC(=O)NCCc1ccc(C(=O)COC(=O)c2cc(C)oc2C)cc1	-24%
O=C(c1ccc(-c2ccccc2)cc1)N1CCC(C(=O)N2CCCC2)CC1	-9%
CC1CN(C(=O)COC(=O)c2ccc(F)cc2Cl)CC(C)O1 (stereo unspecified)	-12%
COc1ccc(C)cc1S(=O)(=O)N(C)CC(=O)Nc1ccc2c(c1)OCCO2	2%
Cc1cccc(/C=N/n2c(C3CCCCC3)n[nH]c2=S)c1	?
COc1cc(N2C(=O)CSC23C(=O)Nc2ccccc23)cc(OC)c1OC (stereo unspecified)	5%
COc1cccc(C(=O)Nc2cccc(OCc3cc(=O)n4cccc(C)c4n3)c2)c1	4%
Cc1ccc(NC(=O)c2ncc(Cl)c(Cl)c2Cl)cc1C	-9%
CC/C(=N/NC(=O)c1ccc(Br)o1)c1ccc(Cl)cc1	-12%
CCc1ccc(CNc2ccc3c(c2)ncn3C(C)(C)C)cc1	12%&-15%
CNc1snc(C)c1C(=O)OCC(=O)NCc1ccccc1OC	4%
CCOC(=O)c1ccc(N=c2ssnc2Cl)cc1	16µM*
O=S(=O)(NCc1nc2cccnc2n1Cc1ccc(F)cc1)c1ccc(Cl)s1	-11%
Cc1ccc(C(C)C)cc1OCC(=O)N1CCN(C(=O)c2ccco2)CC1	-14%
Cn1c(=O)oc2cc(S(=O)(=O)NCc3ccc(Cl)cc3)ccc21	-8%
Cc1cc(C)cc(NC(=O)CSc2nnnn2-c2cccnc2)c1	3%
COC(=O)C1C(O)CC[C@H]2CN3CCc4c([nH]c5ccccc45)C3C[C@H]12 (stereo partly specified)	29%
Cc1cccnc1-n1c(CCN2C(=O)c3ccccc3C2=O)nc2ccccc2c1=O	0%
CC(C)CN(C(=O)C1CC1)C1CCS(=O)(=O)C1 (stereo unspecified)	6%
COc1ccccc1NC(=O)N1CCN(C(=O)Nc2ccccc2OC)CC1	3%
NCc1nc2cccnc2n1Cc1ccccc1Cl	-17%
Cc1cccc(Nc2c(-c3ccc(N4CCOCC4)cc3)nc3ncccn23)c1	-1%
CCOC(=O)CNC(=O)C1(/C=C/c2ccccc2)CC(=O)N1c1ccc(OC)cc1 (stereo unspecified)	-3%
O=C(Nc1cc(N2CCCCC2)ncn1)c1ccc(F)cc1	-17%
CCOc1ccc(NC(=O)CN2CCN(CC(=O)Nc3ccc(OC)cc3)CC2)cc1	5%&-6%
CCOC(=O)c1c(NC(=O)Cn2nnc(-c3ccccc3Cl)n2)sc(C)c1C	11%
COC(=O)c1cnn(-c2ccc(C(=O)Nc3cc(OC)c(OC)c(OC)c3)cc2)c1N	-3%
CS(=O)(=O)c1ccc(N2CCN(S(=O)(=O)c3cccs3)CC2)c([N+](=O)[O-])c1	-15%
CCC(=O)Nc1nnc(S(=O)(=O)N(CC)c2ccc(OC)cc2)s1	10%
CC(C)(C)OC(=O)CNC(=O)c1[nH]cnc1C(=O)N[C@@H](CCCCN)C(=O)OC(C)(C)C	8%
COc1ccc(N2CCN(CCCNC(=O)c3sc4ncccc4c3-n3cccc3)CC2)cc1	2%

Only part of the results is shown, so the mix of outcomes need not match the whole.
